# Sfp PPTase inh: inhibitors of Bacillus subtilis Sfp phosphopantetheinyl transferase; hit rate 3.5% among 310,000; Biochemical Sfp PPTase activity, qHTS; Potency, µM, inactives show max response, negative = inhibition, most hits filed as inhibitors; active = well fitted inhibition curve with a large enough effect; inconclusive = small, poorly fitted or top-dose-only effect, or another doubt; inactive = no such curve, though single readings can be large or run the other way;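 note: the enzyme is Sfp with the accession as filed and its product quenches rhodamine fluorescence; potency is the fitted concentration of half-maximal effect; 0% = enzyme reaction without inhibitor and -100% = no enzyme wells; top concentration of the series not given in the record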
#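 Reaction rates are the 30-min fluorescence difference (ex 525, em 598 nm) in wells containing 15 nM Sfp, 5 uM rhodamine-CoA and 12.5 uM BHQ-2-YbbR at pH 7.6 with 10 mM MgCl2.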
# gsp antagonist: antagonizes gsp, the McCune-Albright syndrome mutation; gsp-mutant cells, cAMP HTRF, 30 min; control for the full effect not named in the record; Potency, µM (doses to about 76.9 µM), for the others: at the top dose activity change, negative = inhibition, actives largely listed as inhibitors; hit rate 0.4% among 340,000; AID 624288; active = falling curve of any shape with a large fitted effect; inconclusive = falling curve, mostly with a smaller effect; inactive = flat or rising curve; cell line not stated here;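 note: intracellular cAMP measured with PDE inhibitor Ro 20-1724 present during compound exposure; potency is the fitted concentration of half-maximal effect; % is set by controls: 0 for no effect and ±100 for the full control effect; nearly all actives have a fitted effect of over 65% in size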
#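 HTRF cAMP measurement after 30 min RT detection following 30 min, 37C compound treatment alongside […] (added as 300 uM solution) in G418-selected cells seeded at 2000/well and grown 16–24 h.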
# TRPV1 PAM: potentiators of human vanilloid receptor 1 (TRPV1); Q8NER1; TRPV1-expressing cells, Fluo-8 calcium influx, capsaicin EC20 potentiation; host cell line not named in the record; control for the full effect not named in the record; potentiation, % at 8.33 µM; hit rate 0.02% among 320,000; active means potentiation above 80%; inconclusive means 30% to 80%; inactive means below 30%; note: 0% is about no effect
# Target sequence (Q8NER1 whole entry, looked up): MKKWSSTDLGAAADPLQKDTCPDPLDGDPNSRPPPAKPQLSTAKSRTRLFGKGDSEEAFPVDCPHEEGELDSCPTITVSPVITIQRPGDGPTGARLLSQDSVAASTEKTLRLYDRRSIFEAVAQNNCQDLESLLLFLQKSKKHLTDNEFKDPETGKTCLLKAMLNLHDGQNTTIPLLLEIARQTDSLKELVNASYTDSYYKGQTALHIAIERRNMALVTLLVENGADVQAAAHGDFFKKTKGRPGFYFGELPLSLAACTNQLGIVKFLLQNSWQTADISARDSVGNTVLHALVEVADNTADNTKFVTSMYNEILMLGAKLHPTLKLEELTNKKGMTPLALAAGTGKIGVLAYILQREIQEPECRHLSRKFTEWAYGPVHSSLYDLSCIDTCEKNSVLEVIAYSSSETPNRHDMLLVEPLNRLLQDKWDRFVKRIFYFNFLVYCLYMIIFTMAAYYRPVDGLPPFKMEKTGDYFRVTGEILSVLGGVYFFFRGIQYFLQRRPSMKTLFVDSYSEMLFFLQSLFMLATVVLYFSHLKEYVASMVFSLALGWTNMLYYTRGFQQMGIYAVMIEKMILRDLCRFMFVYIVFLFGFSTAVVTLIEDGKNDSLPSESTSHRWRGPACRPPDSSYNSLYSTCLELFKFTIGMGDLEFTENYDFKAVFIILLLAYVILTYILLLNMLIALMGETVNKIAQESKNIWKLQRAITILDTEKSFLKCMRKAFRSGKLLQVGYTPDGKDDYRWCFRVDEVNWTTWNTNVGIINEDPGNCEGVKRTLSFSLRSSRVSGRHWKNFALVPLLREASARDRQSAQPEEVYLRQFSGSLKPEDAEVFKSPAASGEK
#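 Cells expressing TRPV1 were dye-loaded with Fluo-8 and read kinetically: 10 s baseline, 3 min after compound (agonist portion), then 2 min after EC20 capsaicin (allosteric enhancer portion). Calcium-bound dye fluorescence at 480/520 nm.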
# ClpP mod: qHTS Assay for Activators of ClpP; hit rate 1.9% among 340,000; purified B. subtilis ClpP, FRET peptide cleavage, 20 min; ATP-dependent Clp protease proteolytic subunit (Bacillus subtilis (strain 168)), P80244; Potency, µM (doses to about 57.5 µM), inactives show at the highest dose activity change, negative = active; active = well fitted falling curve with a large enough effect; inconclusive = small, poorly fitted or top-dose-only effect; inactive = no such curve, though single readings can be large or run the other way; note: potency is the fitted concentration of half-maximal effect; the source files actives as falling curves though it sought activators and does not explain the sign; nearly all actives have a fitted effect of over 65% in size; many hits overshoot -100%
# Target sequence (P80244 whole entry, looked up): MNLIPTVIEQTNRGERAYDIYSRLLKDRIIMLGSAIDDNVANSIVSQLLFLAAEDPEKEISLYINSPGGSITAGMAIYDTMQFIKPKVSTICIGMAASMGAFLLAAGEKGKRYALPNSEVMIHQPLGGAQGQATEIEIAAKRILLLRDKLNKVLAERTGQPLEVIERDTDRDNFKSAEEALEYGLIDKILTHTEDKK
#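 Buffer: 100 mM Tris/HCl pH8, 100 mM KCl, 0.05% low protease BSA, 2.5% glycerol, 0.01% Tween-20. ClpP 10 microg/mL final; 20 min RT; delta FRET normalized to ADEP and DMSO controls.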
# CtBP-E1A blk: inhibitors of CtBP/E1A interaction; hit rate 0.49% among 340,000; activity change, % (concentration not given with the values); AlphaScreen GST-E1A/His-CtBP binding, 1536-well; hits give low values; control for the full effect not named in the record; in the data active means activity change below about -65%; inconclusive means about -30% to -65%; inactive means above about -30%; note: % is set by controls: 0 for no effect and ±100 for the full control effect
#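 In 5 uL wells, 23 nL compound meets equimolar GST-E1A and His-CtBP (5X stock 125 nM each) for 2 h, 37 °C. Beads (5X, 50 ug/mL) then 1 h, 37 °C, dark.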
# gsp agonist: gsp mutant agonism. gsp mutant cells, cAMP HTRF, 30 min; control for the full effect not named in the record. Potency, µM (highest dose often 76.9 µM), for inactives: at the top dose activation (cAMP increase), hits mostly activators. hit rate 0.13% among 340,000. AID 624287; active = well fitted activation curve with a large enough effect; inconclusive = small, poorly fitted or top-dose-only effect, or another doubt; inactive = no such curve, though single readings can be large or run the other way; cell line not stated here;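 note: phosphodiesterase inhibitor Ro 20-1724 added with compounds to block cAMP breakdown; potency is the fitted concentration of half-maximal effect; nearly all actives have a fitted effect of over 60% in size; about a fifth of the inactives were tested at one dose only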
#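 Cells in DMEM/10% FBS with G418 were pretreated with compounds in DMSO plus […] (300 uM stock) for 30 min at 37C. cAMP was measured by HTRF (cAMP-d2 plus anti-cAMP antibody-K) after 30 min at room temperature.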
# Menin-MLL FL inh: inhibitors of human menin-MLL interaction, wild-type MLL peptide | Fluorescence polarization, fluorescein-MLL peptide displacement from menin | FP activity change, % at 61.4 µM | 290,000 tested, under 10 active | AID 1766; inconclusive = falling polarisation curve, or a change in total fluorescence; inactive = total fluorescence flat and polarisation flat or rising; no compound was filed as active; the % refers to the polarisation; negative = inhibition;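 note: % of control where 0% means no effect; inhibitors lower the polarisation; unlabelled MLL peptide was the positive control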
# Numbers without * were called inactive; ? = inconclusive; · = no result given; & = joins results of further samples; [ ] = dose if it differs, or a comment.
SMILES,Sfp PPTase inh,gsp antagonist,TRPV1 PAM,ClpP mod,CtBP-E1A blk,gsp agonist,Menin-MLL FL inh
CCN(CC)c1nc(Nc2ccc([N+](=O)[O-])cc2)nc(N(CC)CC)n1,17%,-16%,-40,-5.4%,·,-24%,-0.3
O=C(COc1ccc(Cl)cc1)Nc1nnc(S(=O)(=O)N2CCCCCC2)s1,22%,-17%,13,-9.7%&5.0%,5,2%,-1.2
COC(=O)c1ccccc1C(=O)N1CC(O)CO1 (stereo not given),19%,3%,13,·,8,?,-1.2
CC1CC(C)CN(C(=O)C(C)N(C)CC(=O)Nc2ccccc2Cl)C1 (stereo not given),0%,8%,-11,1.7%,4,-8%[15.4 µM],-0.5
O=C(N/C(=C\c1cccs1)C(=O)N1CCOCC1)c1ccco1,13%,4%,2,-1.0%,-1,?,-0.9
CCOc1ccc2oc(C(=O)OCC(=O)NC3CCCCC3)c(C)c2c1,·,4%,-6,4.2%,3,13%,·
C[C@@H]1CN([C@H](C)CO)C(=O)CCCn2nncc2CO[C@H]1CN(C)Cc1ccc(Oc2ccccc2)cc1,·,·,·,1.4%,0,-195%[inhibitor],·
O=C(NNS(=O)(=O)c1ccc(Br)cc1)C1CCCCC1,3%,1%,-2,·,19,-2%[15.4 µM],2.9
CCOC(=O)c1ccc(S(=O)(=O)N2CCN(CC3CC=CCC3)CC2)cc1 (stereo not given),20%,4%,1,-1.4%,9,3%,1.3
CC(C)(C)n1ncc2c(=O)n(CC(=O)c3ccc(Cl)cc3)cnc21,2%,-7%,-19,1.5%,1,-14%,0.5
CCOC(=O)c1cc(NC(=O)Nc2ccc(OC)c(OC)c2)c(C)nc1C,17%,-3%[15.4 µM],-6,0.3%,-10,25%,-1.6
COC(=O)c1ccccc1NC(=O)CCC(=O)N1CCSc2ccccc21,4%,0%,-6,-13%,0,-19%,0.9
O=C(CSc1ncc(-c2ccccc2)[nH]1)Nc1cccc(O)c1,?,-6%,12,-7.4%,8,-31%[inhibitor],1.9
CC(=O)c1cccc(CN2CCC(n3nccc3NC(=O)c3ccc4c(c3)OCO4)CC2)c1,10%,5%,1,-2.6%,4,-17%,·
COc1ccc(S(=O)(=O)N2CCCCCC2)cc1C(=O)N1CCN(C(C)=O)CC1,·,·,·,-2.1%,-1,?,·
Cn1c(CCCCCN)nc2ccccc21,15%,6%,-6,-2.7%,-8,-3%,-1.5
c1ccc(CN2CCC3CC2c2cc(N4CCCCC4)ccc23)cc1 (stereo not given),·,·,·,0.4%,?,13%,·
COc1cc(Nc2ccccc2Cl)c([N+](=O)[O-])nc1[N+](=O)[O-],6%,?,5,-1.7%,-6,20%,1.5
CN1CCN(S(=O)(=O)c2ccc3[nH]c(=O)oc3c2)CC1,10%,-5%,5,-1.6%,-10,-23%,?
CCCC#Cc1cnc2c(c1)C(=O)N([C@H](C)CO)C[C@H](C)[C@@H](CN(C)C(=O)CCN1CCCCC1)O2,·,·,·,-5.8%,-1,8%,·
Cc1nc2c(sc(=S)n2Cc2ccco2)c(=O)n1CC(=O)Nc1ccccc1F,-24%,?,6,-0.2%,3,6%,5.8
Cc1cc(C(=O)N/N=C/c2ccccc2Br)no1,1%,-5%,6,-0.9%,-3,20%,2.2
CN(CC(=O)Nc1c(Cl)cccc1Cl)C(=O)CCC1CCCC1,0%,-16%,-10,2.3%,12,-7%,·
COc1ccc(Cl)cc1C(=O)NNC(=O)c1cccnc1,4%,1%,8,-1.3%,-4,-69%[inhibitor],-0.3
Cc1noc(NS(=O)(=O)c2ccc(NC(=O)c3oc4ccc(F)cc4c3C)cc2)c1C,15%,?,3,-1.0%,-6,?,3.0
Cc1ccc(C(=O)N2CCN(C)CC2)cc1S(=O)(=O)N1CCCCCC1,12%,-5%,-5,0.4%,-6,-6%,·
COc1cc(C(=O)N2CCN(c3ccc([N+](=O)[O-])cc3)CC2)ccc1OCc1c(C)noc1C,13%,?,5,1.7%,12,-18%,1.5
CC12CC3CC(C)(C1)CC(C(=O)N1CCCC1)(C3)C2,3%,0%,-6,·,-11,-35%[inhibitor],0.1
CN(C)C(CNc1ncccn1)c1ccccc1 (stereo not given),18%,14%,1,·,2,-3%,-14
Cc1cc(O)ccc1NC(=O)Cc1cccc2ccccc12,·,-1%,·,·,-1,-2%,·
Cc1cc2occ(CC(=O)NCc3cccs3)c2cc1C(C)C,1%,-10%,-6,0.8%,4,7%,1.9
CSc1sc2ccccc2[n+]1CCCS(=O)(=O)[O-],18µM*,5%,1,0.3%,-3,0%,3.2
O=C(O)c1cc(S(=O)(=O)NCC2COc3ccccc3O2)ccc1Cl (stereo not given),·,11%,·,0.0%,1,-8%,·
CC(C)(C)n1nc2c(c1NC(=O)COc1ccc(Cl)cc1)CSC2,5%,0%,-1,-1.9%,0,-29%,1.6
Cn1ccnc1SCC(=O)c1ccc(C#N)cc1,-14%,-3%,7,·,1,35%[15.4 µM],-0.1
CCn1nc(CC(=O)O)c2ccccc2c1=O,15%,-6%,-6,·,-20,-9%[15.4 µM],-2.3
COCCN1Cc2cccc(C(=O)Nc3ccc(S(=O)(=O)N4CCOCC4)cc3)c2C1=O,18%,2%,-2,1.0%,0,-17%,1.2
Cc1cccc(OCC(=O)Nc2cc(C)c(C)cc2O)c1,12%,1%,-12,0.5%,12,5%,2.5
O=C(COC(=O)CNC(=O)c1cccc(OC(F)F)c1)NCc1ccc2c(c1)OCO2,·,?,·,1.9%,·,-2%,·
Cc1ccc(SCc2c(C(=O)N/N=C/c3ccncc3)nnn2-c2nonc2N)cc1,10%,-19%,-3,-0.1%,2,-34%,3.9

# 11 of these compounds in a different format:
Compound | Sfp PPTase inh | gsp antagonist | TRPV1 PAM | ClpP mod | CtBP-E1A blk | gsp agonist | Menin-MLL FL inh
CCN(CC)c1nc(Nc2ccc([N+](=O)[O-])cc2)nc(N(CC)CC)n1 | 17% | -16% | -40 | -5.4% | · | -24% | -0.3
O=C(COc1ccc(Cl)cc1)Nc1nnc(S(=O)(=O)N2CCCCCC2)s1 | 22% | -17% | 13 | -9.7%&5.0% | 5 | 2% | -1.2
COC(=O)c1ccccc1C(=O)N1CC(O)CO1 (stereo not given) | 19% | 3% | 13 | · | 8 | ? | -1.2
CC1CC(C)CN(C(=O)C(C)N(C)CC(=O)Nc2ccccc2Cl)C1 (stereo not given) | 0% | 8% | -11 | 1.7% | 4 | -8%[15.4 µM] | -0.5
O=C(N/C(=C\c1cccs1)C(=O)N1CCOCC1)c1ccco1 | 13% | 4% | 2 | -1.0% | -1 | ? | -0.9
CCOc1ccc2oc(C(=O)OCC(=O)NC3CCCCC3)c(C)c2c1 | · | 4% | -6 | 4.2% | 3 | 13% | ·
C[C@@H]1CN([C@H](C)CO)C(=O)CCCn2nncc2CO[C@H]1CN(C)Cc1ccc(Oc2ccccc2)cc1 | · | · | · | 1.4% | 0 | -195%[inhibitor] | ·
O=C(NNS(=O)(=O)c1ccc(Br)cc1)C1CCCCC1 | 3% | 1% | -2 | · | 19 | -2%[15.4 µM] | 2.9
CCOC(=O)c1ccc(S(=O)(=O)N2CCN(CC3CC=CCC3)CC2)cc1 (stereo not given) | 20% | 4% | 1 | -1.4% | 9 | 3% | 1.3
CC(C)(C)n1ncc2c(=O)n(CC(=O)c3ccc(Cl)cc3)cnc21 | 2% | -7% | -19 | 1.5% | 1 | -14% | 0.5
CCOC(=O)c1cc(NC(=O)Nc2ccc(OC)c(OC)c2)c(C)nc1C | 17% | -3%[15.4 µM] | -6 | 0.3% | -10 | 25% | -1.6

# Next section.
SMILES,Sfp PPTase inh,gsp antagonist,TRPV1 PAM,ClpP mod,CtBP-E1A blk,gsp agonist,Menin-MLL FL inh
CSc1nc(-c2ccccc2)nc(C(Cl)Cl)n1,-7%,23%,-5,-4.3%,1,-54%[inhibitor],1.4
Fc1ccccc1CSCc1nc2ccccc2[nH]1,24%,-1%,-4,0.7%,2,10%,-3.6
CC(C)c1ccc(C(=O)CSc2n[nH]c(-c3ccncc3)n2)cc1,14%,-14%,-10,-3.6%,0,6%,3.7
C[C@@H]1CCC(=O)N(CC[C@H](N=[N+]=[N-])c2ccccc2)CC1,14%,-3%,-26,-2.1%&0.0%,3,·,-0.2
COc1ccc(C(=O)OCC(=O)N(Cc2ccccc2)Cc2ccccc2)c(O)c1,·,·,·,-22%,0,32%,·
O=C(NCCc1ccc2c(c1)OCCO2)c1ccc(F)cc1,-1%,-20%,-9,-4.5%,-8,-3%,-0.6
CCS(=O)(=O)Nc1cccc(C2=NN(S(=O)(=O)c3ccccc3)C(c3ccco3)C2)c1 (stereo not given),?,-18%,5,·,-3,9%[15.4 µM],5.3
CC(C)(C)C(=O)N(Cc1ccc(Cl)cc1)Cc1cccnc1,19%,2%,-6,-2.0%,·,24%,12
CCOC(=O)N1CCN(C(=O)CSc2nc3ccccc3c(=O)n2-c2ccccc2)CC1,2%,2%[15.4 µM],?,-7.3%,-1,-4%,-26
O=C1c2ccccc2C(=O)c2c(NCc3cccnc3)cccc21,-6%,-11%,-10,-1.5%,-8,-33%[inhibitor],11
O=C(COc1ccc(Br)cc1)Nc1nc(-c2cccnc2)cs1,3%,0%,5,-3.5%,-1,?,2.3
COc1cc(C2NC(=O)NC(C)=C2C(=O)OC2CCCCC2)cc(Br)c1O (stereo not given),3%,-5%,·,0.6%,3,-31%[inhibitor],12
O=C(NCCc1c[nH]c2ccccc12)[C@@H]1C[C@H]1[C@@H](NP(=O)(c1ccccc1)c1ccccc1)c1ccccc1,9%&32%,·,-4,·,·,·,6.6&1.3
CCOC(=O)CNC(=O)CSc1ncnc2c1cnn2-c1ccc(C)cc1,0%,4%,3,-1.1%,4,-1%,-0.4
Cc1ccc(Nc2nc(NCCO)c3ccccc3n2)cc1C,79µM*,-8%,1,·,-9,-14%,3.2
